Insulin prom inh: inhibitors of insulin promoter-driven GFP, primary screen, imaging, TRM-6 cells (human fetal islet line), eGFP reporter, cell count; 130,000 tested, 0.9% active; reporter expression induced with tamoxifen; inhibition, % at 2 µM;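 active = inhibition above the mean plus 3 SD, with well images judged a real hit on visual review, cut at about 60% in these data, passing the limit was not always enough; inconclusive = inhibition over the cutoff but images rejected on review; inactive = inhibition not above the cutoff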
PKD1 kinase inh: inhibitors of human PKD1 kinase, biochemical, fluorescence polarization; PKD1 kinase fluorescence polarization assay; inhibition, %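 (about 10 µM by stock and volumes)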; 200,000 tested, 0.056% active; AID 797, 2007;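 active = inhibition of 50% or more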;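 note: controls were vehicle for no effect and a reference inhibitor for full effect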
HSV augment: enhancers of HSV replication in host cells, fold increase, host cell viability | HSV replication augmentation in cells | maximum fold increase | 220,000 tested, 0.005% active | AID 1956, 2009;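 active = peak rise of 1.5-fold or more in the series; inconclusive = self-fluorescent or not available for retest; tested in PC3 cells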;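 note: first round at 10 µM; read as green reporter fluorescence; hits show the peak of a series up to 25 µM; 1 = signal of infected wells without compound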
GALR2 agonist: GALR2 receptor agonists, primary screen, cell-based; Galanin receptor type 2 (Homo sapiens), O43603; GALR2-expressing cells, agonist activation read-out; activation, %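 (tested at 5 µM)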; 140,000 tested, 0.48% active; AID 803, 2007;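 active = above mean plus 3 SD of all compounds, about 5% in these data, not always enough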;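 note: 0% = vehicle buffer wells and 100% = reference agonist at full effect; tested in CHO reporter cells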
Target sequence (O43603 whole entry, looked up): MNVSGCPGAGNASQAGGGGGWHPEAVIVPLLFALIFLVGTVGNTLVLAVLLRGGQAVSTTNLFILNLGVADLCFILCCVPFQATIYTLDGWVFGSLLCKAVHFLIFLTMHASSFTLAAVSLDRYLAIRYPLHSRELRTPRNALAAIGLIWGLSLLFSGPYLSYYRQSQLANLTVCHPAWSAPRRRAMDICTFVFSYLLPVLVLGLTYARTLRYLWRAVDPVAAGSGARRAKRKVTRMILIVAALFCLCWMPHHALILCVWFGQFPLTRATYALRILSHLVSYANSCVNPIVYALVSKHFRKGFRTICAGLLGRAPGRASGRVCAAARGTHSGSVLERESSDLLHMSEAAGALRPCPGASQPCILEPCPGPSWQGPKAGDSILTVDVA
RGS16-Gao HTS: modulators of RGS16 binding to Galphao, primary screen, biochemical, human proteins, multiplexed bead flow cytometry | Regulator of G-protein signaling 16 (Homo sapiens) + Guanine nucleotide-binding protein … | bead-based flow cytometry RGS16-Galphao binding, fluorescence; actives lie on both sides | binding response (% of control), % at 10 µM | 220,000 tested, 0.38% active | AID 1441, 2008;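 active = below 25% or above 175%, edge rows of some plates excepted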;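 note: Galphao activated by GDP with aluminum fluoride before binding; 100% = wells without compound and 0% = beads without RGS; some results beyond the cut were filed as inactive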
Target sequence (O15492 whole entry, looked up): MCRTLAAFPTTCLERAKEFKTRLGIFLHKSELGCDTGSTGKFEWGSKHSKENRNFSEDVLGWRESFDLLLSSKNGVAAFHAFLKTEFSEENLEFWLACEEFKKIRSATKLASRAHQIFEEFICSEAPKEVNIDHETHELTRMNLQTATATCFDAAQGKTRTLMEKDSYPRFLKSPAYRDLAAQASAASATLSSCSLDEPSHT
Target sequence (P09471 whole entry, looked up): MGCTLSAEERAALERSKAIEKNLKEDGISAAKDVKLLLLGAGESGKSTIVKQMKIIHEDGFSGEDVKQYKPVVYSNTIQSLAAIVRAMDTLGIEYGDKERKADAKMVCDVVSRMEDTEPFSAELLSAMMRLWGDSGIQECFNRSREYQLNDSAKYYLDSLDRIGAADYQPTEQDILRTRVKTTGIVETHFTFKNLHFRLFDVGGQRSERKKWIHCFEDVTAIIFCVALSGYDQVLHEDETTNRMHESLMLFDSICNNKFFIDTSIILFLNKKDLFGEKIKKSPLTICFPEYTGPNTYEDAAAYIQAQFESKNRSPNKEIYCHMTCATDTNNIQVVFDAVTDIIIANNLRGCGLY
Insulin prom inh cell count: recorded beside Insulin prom inh, whose call it bears; normalized cell count, %; measured here: cell count, toxicity; reference of the scale not given here;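 cells exposed to compound for 48 h; stained nuclei by imaging scaled within each plate; lower means fewer cells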
HSV augment primary fold: further read-out of HSV augment, marked with its call; fold increase; compound at 10 µM; measured here: primary screen fold increase 10 uM; tested in PC3 cells;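 GFP signal in the first replicate; 1 = infected wells without compound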
* hit, by the source's call; i = inactive; ? = inconclusive; . = not tested or not shown.

Preview:
SMILES | Insulin prom inh | Insulin prom inh cell count | PKD1 kinase inh | HSV augment | HSV augment primary fold | GALR2 agonist | RGS16-Gao HTS
O=S1(=O)CCN(Cc2ccccn2)CC1 | . | . | . | i | 0.96 | . | 101.8
COc1ccc(C)cc1NC(=O)CN1C(=O)c2cccc3cccc1c23 | -50.0 | 124.1 | -11.6 | i | 1 | -0.6 | 95.1

The listing, repeating the preview:
SMILES | Insulin prom inh | Insulin prom inh cell count | PKD1 kinase inh | HSV augment | HSV augment primary fold | GALR2 agonist | RGS16-Gao HTS
O=S1(=O)CCN(Cc2ccccn2)CC1 | . | . | . | i | 0.96 | . | 101.8
COc1ccc(C)cc1NC(=O)CN1C(=O)c2cccc3cccc1c23 | -50.0 | 124.1 | -11.6 | i | 1 | -0.6 | 95.1
Cc1ccc(CNc2cnccn2)cc1 | -40.0 | 112.9 | 3.8 | i | 1.07 | -0.5 | 101.9
CCOC(=O)C1CCN(S(=O)(=O)c2ccc(-c3cc(C(F)(F)F)n(C)n3)s2)CC1 | . | . | . | i | 0.94 | . | 101.2
COC(=O)c1cc(NC2c3ccccc3C(=O)N2c2cccnc2)cc(C(=O)OC)c1 (centres undefined) | . | . | -7.5 | i | 0.97 | -2.4 | 105.5
Cc1ccc(S(=O)(=O)N(C)c2ccc(OCC(=O)Nc3nc(-c4ccccc4)cs3)cc2)cc1 | -13.3 | 96.1 | -9.8 | i | 0.88 | -1.2 | 152.2
CCn1c(COc2ccc(C(C)C)cc2)nnc1SCC(=O)Nc1nccs1 | . | . | 1.6 | i | 0.95 | -2.9 | 101.5
Cc1ccc(OCC(=O)O/N=C(\N)c2cccc([N+](=O)[O-])c2)cc1C | . | . | . | i | 1.05 | . | 99.7
Cc1nc2ccccc2c(=O)n1N | . | . | 1.9 | i | 0.93 | -2.4 | 91.7
CCOc1ccccc1NC(=O)c1cc(C(=O)Nc2ccccc2OCC)cc(N2C(=O)CCC2=O)c1 | . | . | -3.7 | i | 0.94 | . | 101.3
C=CCn1c(SCC(=O)O)nnc1-c1cccc(Cl)c1 | -34.5 | 107.0 | 1.8 | i | 0.98 | -2.3 | 98.9
CC(=O)Nc1ccc(NC(=O)C2CCCN2C(=O)Nc2ccc(F)c([N+](=O)[O-])c2)cc1 (centres undefined) | . | . | 10.7 | i | 0.99 | . | 106.0
Cc1cc(NC(=O)Cn2cnc3c(cnn3C(C)(C)C)c2=O)no1 | 19.1 | 136.8 | 1.7 | i | 1.04 | -1.4 | 104.6
O=C(NNC(=O)c1ccccc1O)c1ccco1 | 27.3 | 68.9 | 0.1 | i | 0.88 | . | 97.2
CNCc1ccccc1Sc1ccc(OC)c(OC)c1 | . | . | -3.7 | i | 0.94 | -3.5 | 107.0
Cc1cc(=O)oc(C)c1C(=O)N[C@@H]1CCCCNC1=O | . | . | -13.3 | i | 0.89 | -2.0 | 95.5
COc1ccc(CN(C(=O)CSc2nnc(-c3ccccc3C)o2)c2ccc(F)cc2)cc1 | -127.8 | 91.6 | 0.7 | i | 1.06 | -1.9 | 112.8
CCOC(=O)C1CCN(C(=O)c2cccnc2)CC1 | . | . | -10.3 | i | 0.99 | 0.1 | 102.1
COc1ccc(NC(=O)Cc2c(C(=O)O)n(C)c3ccccc23)cc1OC | . | . | 1.7 | i | 1.11 | . | 98.0
S=C(Nc1ccccc1)N1N=C(c2cccs2)CC1c1cccs1 (centres undefined) | . | . | -0.1 | i | 1.07 | . | 101.9
CC1=CC(c2ccc(Cl)cc2)n2nc(NC(=O)CCC(=O)O)nc2N1 (centres undefined) | . | . | . | i | 0.94 | . | 103.6
O=C(O)c1ccc2c3c(ncnc13)-c1ccccc1C2=O | . | . | -5.7 | . | . | -1.3 | 98.0
CCOC(=O)C1(Cc2cccc(OC)c2)CCN(Cc2csc(C(C)=O)c2)CC1 | -33.3 | 72.3 | -10.1 | i | 0.9 | . | 121.6
O=c1oc2c(CN3CCOCC3)c(O)c(Cl)cc2c2c1CCC2 | 8.7 | 76.6 | 17.6 | i | 0.83 | 2.2 | 103.4
Cc1ccc(S(=O)(=O)c2ccccc2)cc1S | -8.1 | 121.7 | 5.2 | i | 1.08 | . | 89.1
C[C@@H]1CC=C[C@H]2[C@H]1C(=O)N(Cc1ccccc1)[C@H]2c1ccc(F)c(Br)c1 | . | . | . | i | 0.65 | . | 106.1
CCn1c(CSc2nc3ccccc3s2)nnc1SCC(=O)OC(C)(C)C | 43.8 | 54.3 | -1.7 | i | 1 | -4.4 | 94.3
CN(C)CCCNc1nc(-c2ccccc2)c2c(c1C#N)CC(C)(C)OC2 | . | . | . | i | 0.84 | . | 136.7
Cc1[nH]c(=O)[nH]c1C(=O)CCCCC(=O)O | 66.7 | 82.8 | -3.3 | i | 1.07 | -0.4 | 101.6
COc1ccc(/C=C2\SC(=O)N(CCNC(=O)Cc3coc4cc(C)ccc34)C2=O)cc1OC | -87.1 | 109.4 | -1.6 | i | 0.94 | -0.6 | 103.3
Cn1c(COc2ccccc2)nnc1SCC(=O)Nc1ccc2c(c1)OCO2 | 10.7 | 117.0 | 5.6 | . | . | -2.4 | -20.9*
Cc1ccc(NC(=S)NC(C)(C)C)c([N+](=O)[O-])c1 | . | . | . | i | 0.91 | . | 96.2
Nc1ncc(N=Nc2cc(C(=O)O)ccc2Cl)s1 | . | . | . | i | 0.88 | . | 102.3
CC(C)N1CCc2c(sc(NC(=S)NC(=O)c3ccccc3)c2C#N)C1 | -209.7 | 133.3 | 3.6 | ? | . | -0.1 | 85.0
COc1cccc(NC(=O)C2CCN(S(C)(=O)=O)CC2)c1 | 40.0 | 172.1 | 1.6 | i | 1.08 | -3.0 | 64.8
O=c1c2ccccc2c(-c2n[nH]c(=S)o2)nn1Cc1ccccc1 | -25.0 | 92.8 | 1.7 | i | 1 | . | 98.8
CCCCCn1c(SCC(=O)OCC)nc2cc(C(=O)N3CCC(C(N)=O)CC3)ccc2c1=O | 18.4 | 121.0 | -12.6 | i | 0.92 | 0.6 | 104.8
O=C(NCCC1=CCCCC1)NC1CCCCC1 | -12.8 | 88.9 | -4.3 | i | 0.89 | 0.4 | 105.0
Cc1ccc(S(=O)(=O)NC(=O)c2cc(C)n(-c3cc(S(=O)(=O)N4CCOCC4)ccc3N3CCCC3)c2C)cc1 | -7.1 | 87.6 | -0.5 | i | 1.11 | -1.6 | 90.6
O=C(CCc1ccccc1)Nc1ccc(NC(=O)c2ccco2)nc1 | . | . | -7.4 | i | 0.98 | -0.9 | 97.8
CCN(CC)S(=O)(=O)c1ccc2c(c1)nc(SC(C)C(N)=O)n2-c1ccc(OC)cc1 (centres undefined) | 53.3 | 248.8 | -7.2 | i | 0.89 | -1.1 | 101.2
Cc1cc(C)cc(C(=O)NCC(=O)OCC(=O)N2CCN(S(=O)(=O)c3ccc4ccccc4c3)CC2)c1 | 46.9 | 106.8 | -6.5 | i | 0.8 | -1.1 | 108.0
O=C(CSc1nc2ccccc2n1CCc1ccccc1)c1ccc(O)c(O)c1 | . | . | -5.2 | i | 1.02 | . | 85.7
N#Cc1c(N2CCOCC2)nc(N)c2c(N)nc3c(c12)CC(CCl)O3 (centres undefined) | . | . | . | i | 0.88 | . | 129.9
CCC(C)(C)C1CCC(=NNc2nc3ccccc3[nH]2)CC1 (centres undefined) | -61.5 | 164.2 | 5.7 | i | 0.85 | 3.0 | 101.5
Cc1ccc2nc3c(cc2c1)CN(Cc1ccco1)C(=NCC1CCCO1)S3 (centres undefined) | 7.1 | 62.9 | -0.1 | i | 0.64 | -0.8 | 94.9
COc1ccc(CNCCNC(=O)c2nonc2N)cc1OC | 15.0 | 91.3 | -0.8 | i | 0.93 | -1.5 | .
Cc1nc(C(=O)NCc2ccccc2)sc1C1(C)CC(c2cccc([N+](=O)[O-])c2)=NO1 (centres undefined) | . | . | . | i | 1.04 | . | 104.8

Sorted by value in PKD1 kinase inh (rising): some entries from above
SMILES	PKD1 kinase inh	HSV augment primary fold	GALR2 agonist	RGS16-Gao HTS
CCCCCn1c(SCC(=O)OCC)nc2cc(C(=O)N3CCC(C(N)=O)CC3)ccc2c1=O	-12.6	0.92	0.6	104.8
O=C(CCc1ccccc1)Nc1ccc(NC(=O)c2ccco2)nc1	-7.4	0.98	-0.9	97.8
CCN(CC)S(=O)(=O)c1ccc2c(c1)nc(SC(C)C(N)=O)n2-c1ccc(OC)cc1 (centres undefined)	-7.2	0.89	-1.1	101.2
O=C(NCCC1=CCCCC1)NC1CCCCC1	-4.3	0.89	0.4	105.0
COc1ccc(CNCCNC(=O)c2nonc2N)cc1OC	-0.8	0.93	-1.5	.

Other results.
SMILES | Insulin prom inh | Insulin prom inh cell count | PKD1 kinase inh | HSV augment | HSV augment primary fold | GALR2 agonist | RGS16-Gao HTS
O=C(Cc1ccccc1)NCCS(=O)c1ccc(Cl)cc1 (centres undefined) | -6.9 | 129.4 | -2.4 | i | 0.63 | -3.0 | 104.3
CC(=O)Nc1cccc(C(=O)N/N=C/c2ccc(F)cc2)c1 | -14.3 | 103.7 | -4.4 | i | 1.01 | 0.8 | 141.6
O=C(/C=C/c1ccccc1)Nn1cnc2ccccc2c1=O | -17.5 | 134.7 | 2.1 | i | 1.1 | -0.1 | 121.4
O=C(Nc1ccc(N2CCN(c3ncccc3C(F)(F)F)CC2)nc1)c1cccs1 | . | . | . | i | 0.73 | . | 97.8
CN1CCC(NC(=S)Nc2cccc([N+](=O)[O-])c2)CC1 | . | . | 1.3 | i | 1.02 | . | 104.8
COc1ccc(NC(=O)C2CCCN(S(=O)(=O)c3c(C)n[nH]c3C)C2)cc1 (centres undefined) | . | . | -5.5 | i | 0.93 | -2.1 | 95.5
CCOC(=O)c1c(NC(=O)C(C)N2CCN(S(=O)(=O)c3cccs3)CC2)sc2c1CCC(C)C2 (centres undefined) | -96.8 | 79.0 | 0.0 | i | 0.95 | 0.0 | 102.1
O=C(O)c1ccc2nc3c(nc2c1)-c1ccccc1C3=O | -6.2 | 97.3 | 9.8 | i | 0.95 | . | 99.5
Nc1c(C(=O)c2ccccc2O)cnn1-c1ccc(S(=O)(=O)N2CCOCC2)cc1[N+](=O)[O-] | . | . | -3.8 | i | 1.09 | . | 88.4
Cc1cccc(NC(=O)c2ccccc2Br)n1 | . | . | -7.1 | i | 0.91 | . | 102.3
O=C(CCCOc1ccc(Cl)cc1Cl)N/N=C/c1cccc([N+](=O)[O-])c1 | -66.7 | 115.5 | 1.2 | i | 0.99 | -0.8 | 100.6
COc1cc2c(cc1OC)CN(CC(=O)Nc1ccc3c(c1)OCO3)CC2 | -22.2 | 66.2 | -4.6 | i | 0.95 | -1.7 | 95.9
CN(c1ccc(C(=O)NCc2ccc3c(c2)OCO3)cc1)S(=O)(=O)c1ccccc1 | 7.1 | 128.3 | 5.9 | i | 0.96 | . | 98.9
OCCN(Cc1ccccc1)CC1CC2C=CC1C2 (centres undefined) | -8.1 | 118.8 | -1.9 | i | 1.2 | -3.2 | 101.5
O=S(=O)(Cc1ccccc1Cl)Nc1ccccn1 | -96.5 | 93.9 | -6.0 | i | 0.95 | -1.3 | 86.5
Cc1ccc2c(C(=O)CN3CCOCC3)c(C)[nH]c2c1 | 2.6 | 75.9 | -10.5 | i | 0.88 | -0.2 | 456.8
CC(=O)Nc1ccc(NC(=O)C2CC(=O)N(Cc3ccccc3)C2)cc1 (centres undefined) | -7.7 | 98.3 | 0.0 | . | . | . | 104.3
Nc1ccc(N2CCN(c3ccccc3)CC2)c(F)c1 | 30.8 | 88.6 | -5.3 | i | 0.85 | . | 92.8
Cc1cc(Br)ccc1NC(=O)CCN1C(=O)c2ccncc2C1=O | 10.0 | 113.1 | -0.2 | i | 0.94 | -1.8 | 97.1
CCOC(=O)C1=C(c2ccccc2)NC(=S)NC1c1cccc([N+](=O)[O-])c1 (centres undefined) | . | . | -6.8 | i | 0.85 | -0.1 | 108.9
Cc1nnc(SCC(=O)N2CCOCC2)n1C | . | . | -5.6 | i | 0.97 | -1.1 | 92.9
COc1ccc(Cc2nc(C(=O)Nc3ccc(OC)cc3)cs2)cc1 | . | . | -1.8 | i | 0.97 | 26.7* | 101.7
N/C(=N\OC(=O)CCN1C(=O)c2ccccc2C1=O)c1ccccn1 | . | . | 2.0 | i | 1.15 | . | 106.3
CCC(CC)NC(=O)c1cccc(Oc2ccccc2)c1 | . | . | -8.6 | i | 0.95 | . | 101.1
CCc1cccc2c(C(=O)COC(=O)/C=C/c3ccccc3OC)c[nH]c12 | . | . | -3.4 | i | 0.85 | 1.0 | 97.8

Screening results: PubChem BioAssay, several laboratories

An unsorted share of the library, and some 1.1% of all compounds hit somewhere here.
